From PubChem
KCNQ2 block – KCNQ2 channel blockers in CHO-K1 cells – cell-based, FluxOR thallium flux, B-score, primary screen (AID 2156) | O88943 | 20 min; stronger effect = lower value; only compounds with negative scores are shown here; some inactives read as strong as hits | B-score at 10 µM | hit rate 1.1% among 310,000;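 active = fluorescence ratio B-score at most minus 3 library SDs, with starting brightness B-score within 2 library SDs, cut at about -5.5 in these data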
Target sequence (O88943 whole entry, looked up): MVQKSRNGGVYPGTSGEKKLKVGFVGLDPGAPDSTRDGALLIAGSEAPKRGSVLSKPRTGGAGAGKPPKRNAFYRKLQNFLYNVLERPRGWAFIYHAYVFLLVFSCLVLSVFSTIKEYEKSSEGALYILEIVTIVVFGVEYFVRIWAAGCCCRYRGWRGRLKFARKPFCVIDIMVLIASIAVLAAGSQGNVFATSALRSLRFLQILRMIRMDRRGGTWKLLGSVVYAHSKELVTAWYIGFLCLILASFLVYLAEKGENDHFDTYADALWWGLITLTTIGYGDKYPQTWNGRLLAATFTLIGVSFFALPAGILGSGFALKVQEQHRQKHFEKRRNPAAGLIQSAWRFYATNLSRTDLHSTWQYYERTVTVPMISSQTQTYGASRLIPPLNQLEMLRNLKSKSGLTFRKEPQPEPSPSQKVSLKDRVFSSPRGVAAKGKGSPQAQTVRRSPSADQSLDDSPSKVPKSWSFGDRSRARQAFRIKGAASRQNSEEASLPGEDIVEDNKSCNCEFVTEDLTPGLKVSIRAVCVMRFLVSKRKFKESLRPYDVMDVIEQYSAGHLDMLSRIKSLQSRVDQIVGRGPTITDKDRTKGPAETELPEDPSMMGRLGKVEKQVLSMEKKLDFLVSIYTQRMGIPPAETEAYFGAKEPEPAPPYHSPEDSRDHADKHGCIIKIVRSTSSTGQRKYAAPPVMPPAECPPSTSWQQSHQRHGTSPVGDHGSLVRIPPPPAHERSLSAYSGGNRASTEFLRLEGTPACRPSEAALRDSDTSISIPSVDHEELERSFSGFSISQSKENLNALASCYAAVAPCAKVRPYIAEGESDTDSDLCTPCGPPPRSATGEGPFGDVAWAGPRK
KCNQ2 block baseline – second read-out of KCNQ2 block, no call of its own (marks repeat the call); B-score; measured here: initial fluorescence intensity artifact check;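 brightness before thallium and not channel activity; 0 = typical well and far values either way flag optical interference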
An asterisk follows results filed as active; i = inactive. Not all compounds are listed; rates above refer to the full screens.

SMILES	KCNQ2 block	KCNQ2 block baseline
Cc1cccc(OCC(=O)NCc2ccccc2)c1	i	0.38
FC(F)Oc1ccc(N=C2SCC3CCCCN23)cc1 (configuration not stated)	i	-0.17
COc1ccc(OC)c(NC(=O)CSc2nnc(CNc3ccc(F)cc3)o2)c1	i	1.22
CC(=O)Nc1ccc(S(=O)(=O)NCc2nnnn2-c2ccc(Cl)cc2)cc1	i	-0.88
O=c1c2cnn(-c3ccccc3)c2ncn1Cc1ccccc1	i	0.02
Cc1ccc(Cn2ccc(NC(=O)c3cc(-c4cccc(Cl)c4)on3)n2)cc1	i	1.49
O=C(NCc1ccc(Cl)cc1)c1cccc(NC2=NC3CS(=O)(=O)CC3S2)c1 (configuration not stated)	i	1.04
CCc1ccc(S(=O)(=O)N/N=C\c2ccc3c(c2)OCO3)cc1	i	-0.06
N#Cc1nc(COc2ccc(F)cc2)oc1N1CCN(Cc2ccccc2)CC1	-6.95*	-0.53*
COc1ccc(S(=O)(=O)Cc2ccc(C(=O)NCc3cccnc3)o2)cc1	i	1.32
CC(C)CC(NC(N)=O)C(=O)NCCc1ccc(Cl)cc1Cl (configuration not stated)	i	1.4
Fc1cccc(CSc2ccc(-c3ccc4c(c3)OCO4)nn2)c1	i	1.86
Cc1cccc(C)c1NC(=O)Cn1nc(C)n2cccc2c1=O	i	-0.81
O=C(NC1(C(F)(F)F)C(=O)Nc2c1c(=O)[nH]c(=O)n2Cc1ccccc1)c1ccco1 (configuration not stated)	i	0.39
Cc1ccccc1C(=O)Nc1ccc(S(=O)(=O)N2CCN(C)CC2)cc1	i	-0.68
CN(CC(=O)NC1CCCc2ccccc21)C1CCCCC1 (configuration not stated)	i	0.15
CCC(Oc1ccccc1OC)C(=O)N1CC(=O)Nc2ccccc21 (configuration not stated)	i	0.17
CC(=O)N/C(=C\c1ccccc1)C(=O)OC(C)C(=O)c1ccccc1 (configuration not stated)	i	-0.76
O=C(Nc1nnc(CSCc2ccc(F)cc2)s1)c1cccc([N+](=O)[O-])c1	i	1.9
[O-]/C(=C(\C(=S)Nc1ccc(SC(F)F)cc1)[n+]1cccc(CO)c1)c1ccc(Cl)s1	i	0.08
O=C(O)C(=O)Cc1c[nH]c2ccccc12	i	-3.4
CC(NC(=O)COC(=O)C1CSC2(C)CCC(=O)N12)C12CC3CC(CC(C3)C1)C2 (configuration not stated)	i	2.17
COc1ccc(C(=O)NNC(=O)CCc2ccccc2OC)cc1	i	-2.68
C=CCOc1ccccc1CNc1ccc2[nH]c(=O)[nH]c2c1	i	1.19
CC(C)(C)c1ccc(OCc2cnc(Cl)s2)cc1	i	1.86
FC(F)(F)c1cnc2c(-c3ccc(Cl)cc3Cl)noc2c1	i	2.59
Cc1ccn(C(=O)c2cc3ccccc3oc2=O)n1	i	0.01
Cc1cc(Br)ccc1OCCN1CCCC1	i	0.39
COc1ccc(CCNC(=O)CSc2nc(N)cc(=O)[nH]2)cc1OC	i	-0.85
Cc1ccc(SCCNC(=S)Nc2cc(C)cc(C)c2)cc1	i	0.07
CCOC(=O)C1=C(CC)OC(N)=C(C#N)C1c1ccc(OC)c(C)c1OC (configuration not stated)	i	0.02
CCNS(=O)(=O)c1ccc(NC(=S)NCC2CCCO2)cc1 (configuration not stated)	i	-0.11
O=C(Cc1ccc(Cl)cc1)NC(=S)Nc1ccccc1O	i	-0.32
Cc1c(OCC(=O)N2CCC(C(N)=O)CC2)ccc2c1oc(=O)c1ccccc12	i	-1.72
Cc1ccc(Nc2c([N+](=O)[O-])c(=O)oc3ccccc23)cc1C	i	-0.72
O=C(NCCN1CCOCC1)c1ccccc1N1C(=O)[C@@H]2Cc3c([nH]c4ccccc34)C(c3ccccc3)N2C1=O (some centres not stated)	i	-0.68
COc1ccccc1C(=O)NCC(=O)OCC(=O)N(CC(C)C)c1c(N)n(Cc2ccccc2)c(=O)[nH]c1=O	i	1.44
O=C(CCS(=O)(=O)c1ccccc1)N(CCCN1CCOCC1)c1nc2ccc(F)cc2s1	i	-0.56
O=C(COC(=O)Cc1ccccc1[N+](=O)[O-])NCc1ccc(F)cc1	i	0.12
COC(=O)[C@@H]1C[C@H]1[C@@H](NC(=O)c1ccccc1)c1ccccc1	i	0.87
Cc1ccc(C(=O)C2CCN(S(=O)(=O)c3c(C)noc3C)CC2)cc1	i	-0.02
C/C(=N\OCC(=O)Nn1c(=O)[nH]c2ccccc2c1=O)c1cccs1	i	0.61
CC(=O)c1ccccc1N(C(=O)c1ccco1)C(C(=O)NC1CCCC1)c1ccc(N2CCOCC2)cc1 (configuration not stated)	i	0.73
CCC(c1nnnn1Cc1ccc2c(c1)OCO2)N1CCN(c2ccccc2)CC1 (configuration not stated)	i	-0.11
Cc1ccc(S(=O)(=O)c2nc(-c3ccccc3Cl)oc2N(C)C)cc1	i	0.82
COc1ccc(S(=O)(=O)N2CCCN(CC(=O)Nc3ccc(OC)c(Cl)c3)CC2)cc1	i	-0.76
COc1ccccc1NC(=S)NNC(=S)Nc1ccc(OC(F)F)cc1	i	1.36
Cc1sc2ncn(CC(=O)NCC3COc4ccccc4O3)c(=O)c2c1S(=O)(=O)N1CCOCC1 (configuration not stated)	i	-0.12
CCOC(=O)c1ccc(NC(=O)CCc2ccc(C)o2)cc1	i	1.15
COC(=O)C1CSC(C(=O)OC)N1C(=O)CN1CCN(c2ccc(OC)cc2)CC1 (configuration not stated)	i	0.95
(list continues)
SMILES	KCNQ2 block	KCNQ2 block baseline
CCn1c(/C=N/n2cnnc2)nc2ccccc21	i	0.71
Clc1cccc(-c2cc3nc4c(c(NCc5ccco5)n3n2)CCCC4)c1	i	0.86
CCOC(=O)c1c(C)c(C)n(Cc2cccc(OC)c2OC)c1C	i	-1.57
O=C(CSc1ncccn1)c1ccccc1Br	i	1.54
Cc1ccc2cc(C(c3nnnn3C3CCCC3)N(Cc3cccnc3)Cc3ccco3)c(=O)[nH]c2c1 (configuration not stated)	i	1.04
CCOC(=O)C1=C(C)NC(=O)CC1c1cc2c(cc1Br)OCO2 (configuration not stated)	i	0.09
Cc1cc(C)cc(N2CC(C(=O)OCC(=O)Nc3cc(C)on3)CC2=O)c1 (configuration not stated)	i	-1.6
c1ccc(-c2cncn2-c2ccccc2)cc1	i	-0.36
CCCC(C)C(=O)Nc1ccc(Cl)cc1Cl (configuration not stated)	i	1.79
Cn1c(SCC(=O)c2ccc(F)cc2)nc2cccnc21	i	2.86
O=C(Nc1nc2ccc(F)cc2s1)C1=NN(c2ccccc2)C(=O)CC1	i	1.24
CCOC(=O)CC(NC(=O)c1cccs1)c1ccc(C)cc1 (configuration not stated)	i	-1.8
O=[N+]([O-])/C=C/c1cc2ccccc2[nH]1	i	-0.31
COc1ccc(/C=C/c2nc3ccccc3n2C)cc1	i	0.32
CCN1CCN(C(=O)CN(Cc2ccccc2)S(C)(=O)=O)CC1	i	0.53
COc1ccc(NC(=O)C(CC(C)C)NC(=O)C2CCC(C)CC2)cc1 (configuration not stated)	i	0.64
Cc1ccc(CC(=O)Nc2ccc(S(=O)(=O)N3CCOCC3)cc2)cc1	i	-1.28
COc1cc(NC(=O)C/C(C)=N/NC(=O)C(=O)NC2CCCCC2)c(OC)cc1Cl	i	0.85
O=C(COc1cc2oc(=O)c3c(c2cc1Cl)CCC3)Nc1ccc(CN2CCOCC2)cc1	i	2.05
CCN1CCN(Cc2c(O)ccc3c(=O)c(-c4ccc(OC)c(OC)c4)c(C(F)(F)F)oc23)CC1	i	-0.1
COc1cc(NC(=O)c2cc(-c3ccccc3)on2)cc(OC)c1OC	i	-0.26
CCCc1cc(=O)oc2c(C)c(O)c(CN3CCCCC3)cc12	i	2.96
CC(=O)NC/C(C)=N\Nc1ccc([N+](=O)[O-])cc1	i	-0.19
Cc1sc2ncnc(N3CCC(C(=O)Nc4nnc(SCc5ccccc5F)s4)CC3)c2c1C	i	0.25
Cc1cc2ccccn2c1C(C[N+](=O)[O-])c1ccc(N(C)C)cc1 (configuration not stated)	i	0.58
COc1ccccc1NC(=S)N(CCCN(C)C)Cc1cc2cc3c(cc2[nH]c1=O)OCO3	i	-0.45
Cc1nc([N+](=O)[O-])c(SCC(O)CCl)n1Cc1ccc(Cl)cc1 (configuration not stated)	i	-0.04
O=C(Nc1ccc(N2CCCC2)cc1)c1cccc(-c2cc3ccccc3oc2=O)c1	i	0.46
CCC(=O)Oc1ccc(C(CC)C(CC)c2ccc(OC(=O)CC)cc2)cc1 (configuration not stated)	i	-1.56
COC(=O)c1cc(NC(=O)C2COc3ccccc3O2)cc(C(=O)OC)c1 (configuration not stated)	i	-0.58
COc1ccc(-c2[nH]c(-c3cccc(OC)c3)nc2SCC(=O)NC2CCCC2)cc1	i	-0.41
C=CCN1C(=O)/C(=C\C(C)=C\c2ccccc2)SC1=S	i	-0.18
O=S1(=O)CC(NCc2ccccc2)C(Nc2ccccc2)C1 (configuration not stated)	i	0.92
Fc1ccc(COc2ccc(Br)cc2CNCC2CCCO2)cc1 (configuration not stated)	i	1.6
CCN1C(=O)CSC1=NC1C2CC3CC(C2)CC1C3 (configuration not stated)	i	0.42
Cc1nc2cc3c(cc2c(C)c1C(=O)OC(C)C)OCO3	i	0.95
Clc1ccc(-c2nc3cnccn3c2Nc2ccc3c(c2)OCO3)cc1	i	-0.1
CC(Sc1n[nH]c(-c2ccccc2)n1)C(=O)c1c(N)n(C)c(=O)n(C)c1=O (configuration not stated)	i	-1.33
CCCN(CCC)S(=O)(=O)c1ccc(C(=O)Nc2c(C)n(C)n(-c3ccccc3)c2=O)cc1	i	-0.83
CC(=O)NC1C(Oc2ccccc2C)OC(CO)C(O)C1O (configuration not stated)	i	-0.79
Cc1ccc(NC(=O)c2ccc(Nc3c([N+](=O)[O-])cc([N+](=O)[O-])cc3[N+](=O)[O-])cc2)cc1	i	-0.46
CC(/C=N/NC(=O)c1nnn(-c2nonc2N)c1CN1CCCCC1)=C\c1ccccc1	i	2.03
CCN(CC)S(=O)(=O)c1ccc(F)c(C(=O)OC2CC(C)OC2=O)c1 (configuration not stated)	i	-0.64
O=C(O)c1ccccc1NC1CCCCC1NS(=O)(=O)c1ccccc1 (configuration not stated)	i	0.03
FC(F)Oc1ccc(-n2cc(-c3ccccc3)[n+]3c2CCCCC3)cc1	i	-2.33
Cc1ccc(N(CC(=O)NCc2ccccn2)S(=O)(=O)c2ccccc2)cc1C	i	0.49
Cc1ccc(CNc2nc3ccccc3n2C)o1	i	-0.4
COc1ccc(S(=O)(=O)NC2CC(C)(C)NC(C)(C)C2)c2ccccc12	i	1.77
CO/N=C/C(=N\Nc1cc(OC)cc(OC)c1)C(=O)c1ccccc1	-5.8*	-0.97*
Cc1cccc(N2C(=O)CC(N(O)c3ccccc3)C2=O)c1 (configuration not stated)	i	-1.22
Continued.
SMILES	KCNQ2 block	KCNQ2 block baseline
CC1CCc2[nH]c3ccc(C(=O)N(C)CC(=O)Nc4ccccc4Br)cc3c2C1 (configuration not stated)	i	-1.02
Nn1c(Cc2ccccc2F)nnc1SCC(=O)Nc1cccc(S(=O)(=O)NC2=NCCCCC2)c1	i	0.56
Cc1cc(-c2c(C)[nH]n(-c3ccccc3)c2=O)n[nH]1	i	0.04
C=CCn1c(N)cc(=O)nc1SCC(=O)Nc1ccc(C(=O)OCC)cc1	i	-1.59
Cc1ccc(CN2CCN(/N=C\C(Br)=C\c3ccccc3)CC2)cc1	i	1.95
CCCn1c(C)c(C(=O)OCC)c(O)c(-c2ccccc2)c1=O	i	-1.43
O=C(Nc1nc(-c2ccccc2)cs1)c1ccc(Br)o1	i	-1.7
CC(C)N1C(=O)N(c2ccc(Cl)cc2)C(C)(O)CC1(C)C (configuration not stated)	i	-1.7
O=C(NCc1ccc(F)cc1)c1cccs1	i	0.21
O=C(NC(Cc1ccccc1)C(=O)O)C1CCN(S(=O)(=O)c2ccccc2C(F)(F)F)CC1 (configuration not stated)	i	-0.02
COc1ccc2[nH]c(=O)c(CN(Cc3ccco3)Cc3nnnn3Cc3ccccc3)cc2c1	i	0.35
Cc1ccc(-n2cc(CN3CCNC(=O)CC3)c(-c3cccc(C)c3)n2)cc1	i	-0.65
N#Cc1ccsc1NC(=O)CN1CCN(c2ccc(O)cc2)CC1	i	0.75
O=S(=O)(Nc1cccc(-c2ccc3nncn3n2)c1)c1ccccc1F	i	-0.11

14 compounds out of the list, arranged by SMILES length, ascending.
SMILES	KCNQ2 block	KCNQ2 block baseline
O=C(NCc1ccc(F)cc1)c1cccs1	i	0.21
Cc1ccc(CNc2nc3ccccc3n2C)o1	i	-0.4
O=C(Nc1nc(-c2ccccc2)cs1)c1ccc(Br)o1	i	-1.7
N#Cc1ccsc1NC(=O)CN1CCN(c2ccc(O)cc2)CC1	i	0.75
Cc1cc(-c2c(C)[nH]n(-c3ccccc3)c2=O)n[nH]1	i	0.04
CC(C)N1C(=O)N(c2ccc(Cl)cc2)C(C)(O)CC1(C)C (configuration not stated)	i	-1.7
CO/N=C/C(=N\Nc1cc(OC)cc(OC)c1)C(=O)c1ccccc1	-5.8*	-0.97*
FC(F)Oc1ccc(-n2cc(-c3ccccc3)[n+]3c2CCCCC3)cc1	i	-2.33
COc1ccc(S(=O)(=O)NC2CC(C)(C)NC(C)(C)C2)c2ccccc12	i	1.77
Cc1ccc(-n2cc(CN3CCNC(=O)CC3)c(-c3cccc(C)c3)n2)cc1	i	-0.65
CC1CCc2[nH]c3ccc(C(=O)N(C)CC(=O)Nc4ccccc4Br)cc3c2C1 (configuration not stated)	i	-1.02
COc1ccc2[nH]c(=O)c(CN(Cc3ccco3)Cc3nnnn3Cc3ccccc3)cc2c1	i	0.35
Nn1c(Cc2ccccc2F)nnc1SCC(=O)Nc1cccc(S(=O)(=O)NC2=NCCCCC2)c1	i	0.56
O=C(NC(Cc1ccccc1)C(=O)O)C1CCN(S(=O)(=O)c2ccccc2C(F)(F)F)CC1 (configuration not stated)	i	-0.02
